PINK1 expr mod: changes PINK1 expression; Potency, µM (top dose mostly 76.6 µM), for inactives: at the top dose activation (PINK1 increase), most hits filed as activators; 410,000 compounds, 0.2% hits; PINK1 immunofluorescence, high-content cytometry, 24 h; active = well fitted activation curve with a large enough effect; inconclusive = small, poorly fitted or top-dose-only effect; inactive = flat fitted curve, though single readings scatter; cell line not stated here;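 further: potency means the concentration at half of the fitted maximal effect; % of control where 0% means no effect; nearly all actives have a fitted effect of over 65% in size; a mitochondrial uncoupler was the plate control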
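A stable cell line was treated with compounds at 5 concentrations for 24 hours, with CCCP as control. PINK1 levels and mitochondrial localization were measured by immunofluorescence with mitochondrial, cell and nuclear markers after fixation, read by laser-scanning cytometry.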
D2 PAM: potentiates the human D2 dopamine receptor allosterically; P14416; DiscoveRx D2 beta-arrestin cells, luminescence, 90 min; 100% = 57 uM dopamine signal; potentiation, % (test concentration not listed); 360,000 compounds, 0.23% hits; active = potentiation of 50% or more; inconclusive = 30% to 50%; inactive = 30% or less;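 further: compound concentration not given in the record; tested on top of an EC20 dose of dopamine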
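D2 cells co-treated with compound plus 50 nM dopamine (EC20) for 90 min at 37 deg C to detect potentiation. Beta-arrestin recruitment was read as enzyme-fragment luminescence after 1 h at ambient temperature. Full response was set by 57 uM dopamine.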
CtBP-E1A blk: blocks the CtBP interaction with E1A | 340,000 compounds, 0.49% hits | AlphaScreen GST-E1A/His-CtBP binding, 1536-well; stronger effect = lower value; control for the full effect not named in the record | activity change, % (test concentration not listed) | AID 651724; in the data active means activity change below about -65%; inconclusive means about -30% to -65%; inactive means above about -30%; further: on the % scale 0 is the no-effect control and ±100 the full control effect
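GST-E1A and His-tagged CtBP (125 nM each as 5X stock) were preincubated with pin-transferred compound for 2 h at 37 °C in the dark, then glutathione donor and nickel acceptor beads were added for 1 h before AlphaScreen reading.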
Six1-Eya2 blk: Six1/Eya2 interaction inhibition; activity change, % (concentration not given with the values); Q15475+O00167; AlphaScreen GST-Six1/His-Eya2 binding, biochemical; stronger effect = lower value; control for the full effect not named in the record; 360,000 compounds, 0.56% hits; in the data active = activity change below about -65%; inconclusive = about -30% to -65%; inactive = above about -30%; further: on the % scale 0 is the no-effect control and ±100 the full control effect
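AlphaScreen luminescence read after one hour at 37 °C in darkness. Pin-transferred compounds met GST-Six1 and His-Eya2 protein (5X stock 250 nM/500 nM) plus glutathione donor and Ni-chelate acceptor beads (5X, 50 ug/mL).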
Sfp PPTase inh: inhibitors of Bacillus subtilis Sfp phosphopantetheinyl transferase | 310,000 compounds, 3.5% hits | Biochemical Sfp PPTase activity, qHTS | Potency, µM, for inactives: max response, negative = inhibition, most hits filed as inhibitors | AID 1490; active means well fitted inhibition curve with a large enough effect; inconclusive means small, poorly fitted or top-dose-only effect, or another doubt; inactive means no such curve, though single readings can be large or run the other way;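 further: the enzyme is Sfp with the accession as filed and its product quenches rhodamine fluorescence; potency means the concentration at half of the fitted maximal effect; 0% = enzyme reaction without inhibitor and -100% = no enzyme wells; top concentration of the series not given in the record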
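Compounds were incubated with enzyme (final 15 nM) for 15 min at room temperature before substrate addition started the reaction. Fluorescence at 525 nm excitation, 598 nm emission was recorded immediately and after 30 minutes.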
D2 ag: activates the human D2 dopamine receptor; P14416; DiscoveRx PathHunter D2 beta-arrestin, luminescence, 90 min; 100% = 57 uM dopamine signal; activation, % (concentration not given with the values); 360,000 compounds, 0.084% hits; AID 624465; in the data active = activation above about 40%; inconclusive = about 15% to 40%; inactive = below about 15%; further: the text of the record calls up to 30% inactive
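Agonist mode: compounds alone added to overnight-plated D2 PathHunter cells for 90 min at 37 C, with 57 uM final dopamine (EC100) defining full response. Beta-arrestin recruitment detected by chemiluminescent reagent, read after 1 h at ambient temperature.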
TRPV1 potentiator: enhances activation of the human vanilloid receptor TRPV1. TRPV1-expressing cells, Fluo-8 calcium influx, capsaicin EC20 potentiation; host cell line not named in the record; control for the full effect not named in the record. potentiation, % at 8.33 µM. 320,000 compounds, 0.02% hits; active means potentiation above 80%; inconclusive means 30% to 80%; inactive means below 30%; further: 0% is about no effect
Target sequence (Q8NER1 whole entry, looked up): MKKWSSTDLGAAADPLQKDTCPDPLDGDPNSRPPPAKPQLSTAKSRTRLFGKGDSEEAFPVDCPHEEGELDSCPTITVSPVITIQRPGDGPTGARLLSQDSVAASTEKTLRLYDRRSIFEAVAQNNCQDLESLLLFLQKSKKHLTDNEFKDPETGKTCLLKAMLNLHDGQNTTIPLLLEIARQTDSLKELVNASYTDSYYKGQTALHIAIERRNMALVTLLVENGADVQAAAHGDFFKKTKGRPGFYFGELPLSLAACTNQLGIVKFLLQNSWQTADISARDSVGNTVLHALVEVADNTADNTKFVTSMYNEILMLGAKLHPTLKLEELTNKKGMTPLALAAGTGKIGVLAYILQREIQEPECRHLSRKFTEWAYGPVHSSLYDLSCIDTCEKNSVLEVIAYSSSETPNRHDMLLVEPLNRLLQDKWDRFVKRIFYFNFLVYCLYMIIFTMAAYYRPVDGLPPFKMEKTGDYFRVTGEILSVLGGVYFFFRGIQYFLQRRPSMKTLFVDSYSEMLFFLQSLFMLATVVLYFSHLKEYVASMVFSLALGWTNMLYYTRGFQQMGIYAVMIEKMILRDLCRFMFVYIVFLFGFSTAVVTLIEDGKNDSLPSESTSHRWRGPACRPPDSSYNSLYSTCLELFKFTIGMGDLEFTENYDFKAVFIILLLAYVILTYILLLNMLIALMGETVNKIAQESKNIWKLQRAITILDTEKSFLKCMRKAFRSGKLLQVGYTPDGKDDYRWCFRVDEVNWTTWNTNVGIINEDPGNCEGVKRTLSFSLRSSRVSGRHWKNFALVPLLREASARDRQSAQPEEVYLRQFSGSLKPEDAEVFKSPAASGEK
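TRPV1-expressing cells were cultured overnight at 35.5C and loaded with Fluo-8 calcium dye for 40 to 90 min at room temperature. After a 10 s baseline, compound was added and calcium influx was read kinetically for 3 min (ex 480/em 520 nm).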
An asterisk follows results filed as active; ? = inconclusive; / = not tested or not shown; & = joins results of further samples; [ ] = another dose, or the depositor's remark. Outcome played no part in choosing rows. About 3.7% of those tested had a hit in this group.

SMILES	PINK1 expr mod	D2 PAM	CtBP-E1A blk	Six1-Eya2 blk	Sfp PPTase inh	D2 ag	TRPV1 potentiator
CCOC(=O)NC(NCCc1ccccc1)(C(F)(F)F)C(F)(F)F	2.8%[38.3 µM]	-5	45	21	3%	1.4	-16
CC(C)NC(=O)N(C)C[C@H]1Oc2c(NC(=O)Nc3ccccc3)cccc2C(=O)N([C@H](C)CO)C[C@@H]1C	1.3%	-11	-10	-7	/	-0.6	/
CCSc1nc2sc3c(c2c(=O)[nH]1)CC(C)(C)OC3	4.2%	0	/	-2	2%	1.8	6
CCN(CC(=O)Nc1ccccc1C(F)(F)F)C(=O)Cc1sc(C)nc1-c1ccc(F)cc1	0.7%	-2	-11	6	/	0.2	-8
CCCCn1c(N)c(N(CC(C)C)C(=O)CCS(=O)(=O)c2ccc(C)cc2)c(=O)[nH]c1=O	-2.1%	-21	9	3	/	-6.9	-13
CN1CCSc2ccc(C(=O)NCc3ccccc3F)cc21	0.3%&1.6%	-11	-27	-5	-29%	-5.0	-15
CCc1nnc(NC(=O)CN2CCN(S(C)(=O)=O)CC2)s1	0.4%	-3	8	-1	-17%	5.4	0
Fc1ccc(-c2nnc(-c3ccc(Cl)cc3)o2)cc1	0.3%[38.3 µM]	-8	2	-2	5%	-4.7	0
O=C(Cn1cnc2c(NCc3ccccc3)ncnc21)NCc1ccc2[nH]ccc2c1	13%	/	-3	7	/	-4.8	/
COc1ccc(CC(=O)NN2C(=O)c3ccccc3C2=O)cc1	-0.7%	0	6	0	5%	-1.0	4
Nc1c(C(=O)NCc2ccc3c(c2)OCO3)nnn1Cc1cccc(F)c1	14%	-4	4	3	20%	-1.5	23
COc1ccc(NC(=O)c2cc(-c3cccs3)on2)c(OC)c1	12%	-5	-24	-1	20%	-2.0	23
O=C(c1ccco1)N1CCN(S(=O)(=O)Cc2ccccc2Cl)CC1	4.4%	0	-12	8	?	4.0	8
CC(C)C[C@H](NC(=O)C1CC(=O)N(c2ccc(F)cc2)C1)C(=O)N1CCCCC1 (stereo partly drawn)	-1.7%	3	4	0	21%	-2.0	10
O=C(CCNS(=O)(=O)c1cccc2nonc12)NCc1cccs1	-0.2%	-2	4	-1	8%	-3.3	1
CCCCCN1C=CC(=C2C(=O)c3ccccc3C2=O)C=C1	-0.6%	4	/	-1	10%	1.1	7
CCCn1c(=O)c2c(nc3n2CCCN3CCc2ccc(OC)c(OC)c2)n(C)c1=O	0.0%	20	/	-15	-7%	3.3	-25
O=[N+]([O-])c1cccc(COc2ccc(CN3CCCC3)cc2)c1	-0.2%	-18	-7	-3	/	-2.2	/
O=C(NCc1ccccn1)c1ccccc1OCc1ccccc1Cl	-1.8%	-1	-5	-7	/	-3.3	/
O=C(Nc1cccc(S(=O)(=O)N2CCOCC2)c1)[C@@H]1CCCN1S(=O)(=O)c1ccc(Cl)cc1	-0.3%	-22	-65*	?	15%	-0.2	-20
Cn1c(=O)c2c(SCC(=O)NCC3CCCO3)nc(CC(C)(C)C)nc2n(C)c1=O (stereo not drawn)	0.0%	5	4	3	-16%	2.6	5
COC(=O)c1ccc(C(=O)NN)cc1	1.4%	-7	3	-24	-2%	0.7	-2
O=S(=O)(CCc1nc2ccccc2o1)c1ccc2ccccc2c1	0.7%	-16	3	-2	12%	-0.1	-17
Cc1ccccc1OCC(=O)OCC(=O)N1CCc2ccccc21	-1.0%	-9	0	8	/	-2.2	-13
O=C(NCc1ccccc1)c1ccc(CN2CCC(Cc3ccccc3)CC2)cc1	-0.4%	-11	-7	-8	6%	1.5	-15

Other entries.
SMILES	PINK1 expr mod	D2 PAM	CtBP-E1A blk	Six1-Eya2 blk	Sfp PPTase inh	D2 ag	TRPV1 potentiator
N#CCSc1nnc(CNc2cccc(Cl)c2)o1	1.2%[38.3 µM]	-7	3	1	-4%	-0.9	5
O=C(Nc1nc2ccccc2c(=O)s1)c1ccco1	6.2%	-28	/	-2	?	-7.0	11
CCCCC(NC(=O)c1ccc(C#N)cc1)C(=O)NCCC (stereo not drawn)	-1.9%	-11	0	0	/	-0.9	4
Cc1ccc(Cc2nc(-c3cccnc3)no2)cc1	1.0%	-2	3	-2	-6%	-1.3	9
COc1cc(-c2ccc3oc(-c4ccsc4)c(C#CC4(O)CCCCC4)c3c2)cc(OC)c1OC	3.0%	-45	-3	-8	/	-0.7	/
O=C(Cn1ncc2c3ccccc3n(Cc3ccccc3)c2c1=O)NCCCN1CCCC1	3.8%	-18	-19	-5	-3%	-5.2	14
CS(=O)(=O)c1ccc(C(=O)Nc2ccc(S(=O)(=O)N3CCCCC3)cc2)cc1	6.0%	17	3	3	/	-1.4	-19
O=C(O)CCS(=O)(=O)c1nc(-c2cccs2)cc(C(F)(F)F)n1	9.1%[38.3 µM]	-16	3	-3	2%	-2.2	9
CCOC(=O)CNC(=S)N(CCCN1CCCC1)Cc1cccs1	-2.4%	-7	5	-5	22%	0.0	0
CCN1C(=O)CS/C1=N\c1nccs1	-1.7%	1	7	10	-22%	0.1	7
CCN(CC)S(=O)(=O)c1ccc(OC)c(NC(=S)Nc2ccc(C)c(C)c2)c1	-1.5%	-22	7	3	1%	-2.9	9
CCCCNC(=O)[C@@H]1CSC2c3ccc(OC)c(OC)c3C(=O)N21 (stereo partly drawn)	-1.4%	-11	-9	-6	8%	0.9	-12
CCn1c(SCC(=O)c2ccc(NC(C)=O)c(OC)c2)nnc1-c1ccc(NS(C)(=O)=O)cc1	7.6%	-5	-8	6	13%	-0.7	-1
N#C/C(=C\Nc1ccc(Cl)cn1)S(=O)(=O)c1ccccn1	-0.7%	-1	/	5	0%	-0.5	2
O=C1NC[C@H](CCCCN2C[C@H](Cc3ccc(O)cc3)N(CCC3CCCCC3)C(=O)C2=O)N(CCc2ccc(O)cc2)C1=O	-0.3%	/	1	-1	/	/	/
O=C(Nc1ccon1)Nc1cc(Cl)ccc1Cl	-1.0%	-19	6	13	1%	0.8	-12
Cn1c(CN2CCN(CC#N)CC2)c(C#N)c2ccccc21	-2.7%	-12	-2	3	-1%	-0.3	-7
Cc1ccccc1NC(=O)c1nn(-c2ccc(F)c(F)c2)ccc1=O	1.2%	-21	2	4	11%	3.3	-11
O=C1NC[C@H](Cc2ccccc2)N(CC2CCCCC2)C1=O	0.4%	-1	/	3	13%	1.0	3
O=S(=O)(CCn1cccc1)CCn1cccc1	-1.5%	-21	16	3	15%	-3.5	5
Cc1ccc2c(c1)c1nnc(SCC(=O)N3CCCc4ccccc43)nc1n2CC(=O)O	1.0%	-2	-88*	-78*	2%	-5.4	0
CC(=O)Nc1cccc(NC(=O)c2cccc(OCc3ccccc3)c2)c1	2.9%	-43	3	?	-3%	-1.2	-5
Cc1ccc(NC(=O)N2CCCCCC2)cc1C	2.0%	-19	1	3	-4%	-6.3	-16
CCOC(=O)CCc1c(C)c(C#N)c2nc3ccccc3n2c1-n1ccnc1	3.6%	-6	1	0	12%	-2.5	21
CCCC(=O)Nc1ccccc1NC(=O)C1CCCCC1	?	1	1	-5	10%	7.7	4

New compounds follow
SMILES	PINK1 expr mod	D2 PAM	CtBP-E1A blk	Six1-Eya2 blk	Sfp PPTase inh	D2 ag	TRPV1 potentiator
CCOc1cc(/C=N/N=C2/NC(=O)C(CC(=O)O)S2)ccc1OCc1ccccc1Cl (stereo not drawn)	4.5%	1	-1	2	-3%	-0.2	-1
Cc1ccc(S(=O)(=O)/N=C2/NC(=O)/C(=C\c3ccco3)S2)cc1	-1.8%	5	-7	-15	15%	-3.7	-11
O=C(CS(=O)(=O)c1ccc2ccccc2c1)Nc1ccccc1Cl	0.0%	-24	5	4	1%	-1.2	-17
O=c1cc(CN2CCc3ccccc32)nc2sccn12	0.7%	-8	-5	-12	-7%	0.2	3
COc1ccc(-c2nc3c4ccccc4ccn3c2Cc2cccc(F)c2)cc1OC	1.6%	-8	-12	-10	/	-2.9	/
CCN(CC)CCCNC(=O)c1ccc2c(=O)n(Cc3ccc4c(c3)OCO4)c(=S)[nH]c2c1	1.3%	-4	-5	5	-17%	3.1	4
COc1cccc(NC(=O)CCNC(=O)C2CCN(S(=O)(=O)c3ccc(F)cc3)CC2)c1	0.4%	-8	-10	-1	8%	-0.2	8
Cc1cc(Nc2ccccc2)nc(N)n1	6.0%[38.3 µM]	-17	-5	-1	3%	0.8	-27
COc1ccc(CCN(Cc2cccs2)S(=O)(=O)c2ccc(-n3cnnn3)cc2)cc1OC	-0.1%	12	-2	-3	-9%	0.6	15
Cc1cccc(NC(=S)NC(=O)c2cc(-c3ccccc3)nc3ccccc23)c1	-0.1%	-29	-18	-18	10%	-5.8	-1
Cc1ccc(S(=O)(=O)Oc2ccc(/C=N/N=C3/NC(=O)C(CC(=O)O)S3)cc2)cc1 (stereo not drawn)	0.5%	-1	-2	7	21%	0.7	0
O=C1N2CN(C(c3ccccc3)c3ccccc3)CN=C2SC1(CO)CO	-2.4%	1	3	8	-10%	-3.2	-21

In the list so far, ten contain an aryl methoxy group.
SMILES	PINK1 expr mod	D2 PAM	CtBP-E1A blk	Six1-Eya2 blk	Sfp PPTase inh	D2 ag	TRPV1 potentiator
COc1ccc(CC(=O)NN2C(=O)c3ccccc3C2=O)cc1	-0.7%	0	6	0	5%	-1.0	4
COc1ccc(NC(=O)c2cc(-c3cccs3)on2)c(OC)c1	12%	-5	-24	-1	20%	-2.0	23
CCCn1c(=O)c2c(nc3n2CCCN3CCc2ccc(OC)c(OC)c2)n(C)c1=O	0.0%	20	/	-15	-7%	3.3	-25
COc1cc(-c2ccc3oc(-c4ccsc4)c(C#CC4(O)CCCCC4)c3c2)cc(OC)c1OC	3.0%	-45	-3	-8	/	-0.7	/
CCN(CC)S(=O)(=O)c1ccc(OC)c(NC(=S)Nc2ccc(C)c(C)c2)c1	-1.5%	-22	7	3	1%	-2.9	9
CCCCNC(=O)[C@@H]1CSC2c3ccc(OC)c(OC)c3C(=O)N21 (stereo partly drawn)	-1.4%	-11	-9	-6	8%	0.9	-12
CCn1c(SCC(=O)c2ccc(NC(C)=O)c(OC)c2)nnc1-c1ccc(NS(C)(=O)=O)cc1	7.6%	-5	-8	6	13%	-0.7	-1
COc1ccc(-c2nc3c4ccccc4ccn3c2Cc2cccc(F)c2)cc1OC	1.6%	-8	-12	-10	/	-2.9	/
COc1cccc(NC(=O)CCNC(=O)C2CCN(S(=O)(=O)c3ccc(F)cc3)CC2)c1	0.4%	-8	-10	-1	8%	-0.2	8
COc1ccc(CCN(Cc2cccs2)S(=O)(=O)c2ccc(-n3cnnn3)cc2)cc1OC	-0.1%	12	-2	-3	-9%	0.6	15

Screening data from PubChem.
